# HIV TAR-Tat = TAR RNA-Tat peptide displacers, HIV-1, primary screen, biochemical, FRET, FAM/TAMRA-labeled Tat | HIV-1 TAR RNA, Tat peptide displacement FRET; active compounds read high | 0.6% of 100,000 active | z-score (test concentration not listed);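 also: score is relative to mean and SD of negative controls; some compounds called inactive have numbers as strong as hits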
# CDC25B-CDK2 inh = primary biochemical HTRF screen for blockers of M-phase inducer phosphatase 2 binding to CDK2/cyclin A. P30305+P24941. HTRF CDC25B-CDK2/CyclinA binding, anti-His/anti-Flag; active compounds read high. z-score (concentration not given with the values). 0.72% of 94,000 active. AID 1259370, 2018;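 also: score is relative to mean and SD of negative controls; strong numbers were not always called active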
# An asterisk follows results filed as active; · = not tested or not shown.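 The calls were made as follows: active = z-score from 3 up in half or more of its runs; inactive = the rest.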
SMILES,HIV TAR-Tat,CDC25B-CDK2 inh
Cc1nnc(SCc2cn3ccccc3n2)c2cc3sccc3n12,-1.62,·
O=C(NC1CCCCC1)N1CCC(n2nnc3ccccc3c2=O)CC1,0.97,·
CC1=C(c2cccc(Br)c2)S(=O)(=O)N=C1Nc1cc(C)ccc1C,-0.06,-1.83
Cc1c2cnn(CC(=O)O)c(=O)c2c(C)n1Cc1ccccc1,2.53,0.58
c1ccc(COc2ccccc2-c2nnc(-c3ccccc3)o2)cc1,0.95,·
O=C(ON=C1CCCCC1)c1ccc([N+](=O)[O-])cc1,·,-1.65
Cc1ccc(N2C(=O)N(c3ccc(C)cc3)C3CS(=O)(=O)CC32)cc1 (stereo not drawn),1.3,-1.27
Cc1ccc(Cn2c(SCc3ccc(F)cc3)nc3nccnc3c2=O)cc1,0.7,·
CC1CCN(c2c(NCC3CCC(C(=O)N4CCCC4)CC3)c(=O)c2=O)CC1 (stereo not drawn),-0.42,-0.88
O=C(Nc1ccccc1)N(CCc1ccncc1)C1CCCCC1,·,-1.26
Cn1c(Sc2cnc(=S)[nH]c2-c2ccc(Cl)cc2)nnc1C(F)(F)F,·,0.74
O=C(c1cnn2c3c(cnc12)CCCCCC3)N1CCOCC1,0.18,·
Cc1ccc(F)cc1Nc1nnc(-c2cc3c(ccc4ccccc43)oc2=O)s1,·,-1.04
CCC(C(=O)Nc1ccccc1Cl)n1nc(C)c2sc3ccccc3c2c1=O (stereo not drawn),1.85,-1.53
Fc1cccc(-c2nnc(Cc3ccccc3Cl)o2)c1,1.18,-1.63
O=c1[nH]c2ccc(S(=O)(=O)Nc3ccc(Cl)c(C(F)(F)F)c3)cc2[nH]c1=O,·,0.04
CCOC(=O)c1sc2nc3c(cc2c1N)CSC(C)(C)C3,0.11,-0.44
CCc1ccc(S(=O)(=O)c2ccccc2)cc1S(=O)(=O)NCCc1ccc(OC)c(OC)c1,1.73,·
Cc1cc(NC(=O)Cc2noc3ccccc23)no1,-0.08,-2.04
NC(=O)c1nc(-c2cccc(O)c2)nc2c1[nH]c(=O)n2CC1CCCO1 (stereo not drawn),1.22,·

# At a glance, 16 of the compounds above.
SMILES,HIV TAR-Tat,CDC25B-CDK2 inh
c1ccc(COc2ccccc2-c2nnc(-c3ccccc3)o2)cc1,0.95,·
O=C(ON=C1CCCCC1)c1ccc([N+](=O)[O-])cc1,·,-1.65
Cc1ccc(N2C(=O)N(c3ccc(C)cc3)C3CS(=O)(=O)CC32)cc1 (stereo not drawn),1.3,-1.27
Cc1ccc(Cn2c(SCc3ccc(F)cc3)nc3nccnc3c2=O)cc1,0.7,·
CC1CCN(c2c(NCC3CCC(C(=O)N4CCCC4)CC3)c(=O)c2=O)CC1 (stereo not drawn),-0.42,-0.88
O=C(Nc1ccccc1)N(CCc1ccncc1)C1CCCCC1,·,-1.26
Cn1c(Sc2cnc(=S)[nH]c2-c2ccc(Cl)cc2)nnc1C(F)(F)F,·,0.74
O=C(c1cnn2c3c(cnc12)CCCCCC3)N1CCOCC1,0.18,·
Cc1ccc(F)cc1Nc1nnc(-c2cc3c(ccc4ccccc43)oc2=O)s1,·,-1.04
CCC(C(=O)Nc1ccccc1Cl)n1nc(C)c2sc3ccccc3c2c1=O (stereo not drawn),1.85,-1.53
Fc1cccc(-c2nnc(Cc3ccccc3Cl)o2)c1,1.18,-1.63
O=c1[nH]c2ccc(S(=O)(=O)Nc3ccc(Cl)c(C(F)(F)F)c3)cc2[nH]c1=O,·,0.04
CCOC(=O)c1sc2nc3c(cc2c1N)CSC(C)(C)C3,0.11,-0.44
CCc1ccc(S(=O)(=O)c2ccccc2)cc1S(=O)(=O)NCCc1ccc(OC)c(OC)c1,1.73,·
Cc1cc(NC(=O)Cc2noc3ccccc23)no1,-0.08,-2.04
NC(=O)c1nc(-c2cccc(O)c2)nc2c1[nH]c(=O)n2CC1CCCO1 (stereo not drawn),1.22,·

# (list continues)
SMILES,HIV TAR-Tat,CDC25B-CDK2 inh
O=C(O)Cc1ccc2sc(-c3ccccc3)nc2c1,·,-0.77
CCN1C(=O)c2ccc(S(=O)(=O)c3ccc(C(=O)O)cc3)cc2C1=O,·,-0.49
Nc1nnc(-c2cn(-c3ccccc3)nc2-c2ccc(Cl)cc2)o1,·,-2.09
COC(OC)c1ccc(C#N)c(SCC(=O)c2ccc(Cl)cc2)n1,·,-1.45
Clc1ccc(-n2ncc3c(NCC4CCCO4)ncnc32)cc1 (stereo not drawn),1.33,·
CCOC(=O)N1CCN(C(=O)CSc2nn3c(=O)c(C)nnc3s2)CC1,2.26,·
O=C(Nc1ccc(Br)cc1F)c1csc2c1CCCCC2,1.89,-1.89
CN(c1ccnc(C(=O)NCCCn2ccnc2)c1)S(=O)(=O)c1ccccc1,-0.55,-2.88
O=C(Nc1ccccc1Br)c1cnn(-c2ccccc2)c1-n1cccc1,1.05,-1.75
COc1ccc(C(Nc2ccccn2)c2ccc3ccc(C)nc3c2O)cc1OC (stereo not drawn),1.37,-0.41
CCN(CC)C(=O)C1CCCN(c2ncnc3c2nc2n3CCCCC2)C1 (stereo not drawn),0.59,·
Cc1nc2sc(C)c(C)c2c(=O)o1,·,-1.54
O=C1c2[nH]nc(-c3ccccc3O)c2C(c2cccc(O)c2)N1Cc1ccco1 (stereo not drawn),-1.98,-0.15
O=C(Nc1ccncc1)c1cc2ccccc2oc1=O,·,-0.92
COc1ccccc1NC(=O)Cn1cc(S(=O)(=O)N2CCC(C)CC2)c2ccccc2c1=O,·,-3.23
CC1(C)Cc2c(C#N)c(N3CCOCC3)nc(Cc3ccccc3)c2CO1,1.1,-1.47
Cc1ccc(-c2nc(SCc3cc(=O)n4cc(C)sc4n3)n[nH]2)cc1,0.73,·
CCc1nn2c(=O)c(NC(=O)Nc3cccc(Cl)c3)c(C)nc2s1,0.18,·
Oc1cccc2ccc(CNC3CCCC3)nc12,0.74,·
CNS(=O)(=O)c1cn(CC(=O)N2CCOCC2)cc1S(=O)(=O)NC,0.47,·
Cc1cc2nnc(SCC(=O)Nc3sc4c(c3C(N)=O)CCCC4)n2c2ccccc12,0.4,-1.1
Cc1ccccc1C1CC(c2cccc(NS(C)(=O)=O)c2)=NN1C(=O)C(C)C (stereo not drawn),·,1.2
Cc1cc(C)cc(N2CC(c3nc4ccccc4n3CC(C)C)CC2=O)c1 (stereo not drawn),0.21,-0.64
O=C(NC1CC1)C1CCN(C(=O)c2cnn(-c3ccccc3)c2-n2cccc2)CC1,12.5,-0.92
Cc1nn(CCCC(=O)N2CCN(c3ccccc3)CC2)c(=O)c2cc3sccc3n12,0.64,-1.06
O=C1CCCN1CCCNc1ncnc2c1c(-c1ccccc1)cn2-c1ccc(F)cc1,·,-0.08
Cc1oc2ccc(O)c(CN3CCN(C)CC3)c2c1C(=O)OCC(C)C,0.55,-1.88
CCCNC(=O)NCc1cc(C)n(-c2ccc(Cl)cc2)c1C,-1.98,·
CCOC(=O)c1sc2ncn(CC(=O)N3CCCC3)c(=O)c2c1C,1.49,-0.63
CCCCN(C)CCCNC(=O)Cn1nc(C)n2c(cc3sccc32)c1=O,·,0.28
CCC1CCCCN1C(=O)c1cc(-c2cccs2)on1 (stereo not drawn),-1.24,-0.99
COC(=O)C1C(=O)NC(SC)=C(C#N)C1c1ccccc1C (stereo not drawn),·,0.95
CN(C)c1ccc(/C=N/Nc2c(Cl)cncc2Cl)cc1,·,-1.39
CCn1c2ccccc2c2nnc(NCc3ccc(Cl)cc3)nc21,1.03,-1.19
CCC(Sc1ccc2nnc(-c3ccc(F)cc3)n2n1)C(=O)OC (stereo not drawn),·,-2.34
Clc1ccc(-c2noc(COc3ccccc3)n2)cc1,·,-0.25
O=C(NCc1ccccn1)C1CCN(c2ncnc3c2nc2n3CCCCC2)CC1,-0.99,·
N#C/C(=C\c1ccc2ccccc2c1)c1nc(-c2ccc(-c3ccccc3)cc2)cs1,·,-2.45
COc1cc(NC(=O)c2c(OC)cccc2OC)cc(C(F)(F)F)c1,·,-1.93
Cc1nnc(SCc2nc(-c3ccc(Cl)cc3)no2)n1-c1ccc(F)cc1,2.37,0.07
O=C(Cn1c(=O)sc2ccccc21)N1CCCc2ccccc21,·,-0.63
O=C(CC1CCCCC1)N(c1cccc(Cl)c1)C1C=CS(=O)(=O)C1 (stereo not drawn),1.36,-0.08
COc1ccc(C2c3c(oc4ccc(Cl)cc4c3=O)C(=O)N2CCCN2CCOCC2)cc1OC (stereo not drawn),1.26,·
CN1CCN(c2ccc3nnc(CCC(=O)N4CCOCC4)n3n2)CC1,0.6,·
Cc1ccc2c(O)c(-c3ccccc3)c(=O)[nH]c2c1,·,-1.4
Cc1ccnc(NS(=O)(=O)c2ccc(-c3cc(C)no3)cc2)c1,-1.24,·
COc1ccc(S(=O)(=O)Nc2cccc(-c3ccc(S(C)(=O)=O)nn3)c2)cc1,-0.57,·
CCn1cnc2c(oc3ccccc32)c1=O,2.05,·
CCOC(=O)C1=CS/C(=C2/C(=S)C(C)(C)Nc3cc(C)ccc32)S1,1.01,-3.3
CCOC(=O)C1CCCN(C(=O)C2CCCN(S(=O)(=O)c3ccc4c(c3)oc(=O)n4C)C2)C1 (stereo not drawn),1.06,-1.73
CC(C)Cc1ccc2c(N)c(C(=O)O)sc2n1,·,-1.19
CCn1c2ccccc2c2cc(CN3CCN(Cc4ccc(SC)cc4)CC3)ccc21,·,10.7*
c1ccc(-c2nnc(CN3CCc4ccccc4C3)o2)cc1,1.68,-1.82
COc1ccc(-c2onc(C)c2C)cc1S(=O)(=O)N1CCCC(C)C1 (stereo not drawn),0.48,·
O=[N+]([O-])c1ccc(SC2=NCCS2)c([N+](=O)[O-])c1,·,1.39
Cn1c(=O)oc2cc(S(=O)(=O)NCc3ccc(Cl)cc3)ccc21,1.03,0.74
COc1ccc(OC)c(S(=O)(=O)Oc2ccc3ccccc3c2I)c1,·,-1.25
CCN(CC)c1nc2c(c(=O)[nH]c(=O)n2C)n1Cc1ccc(F)cc1,·,-0.4
CC(C)CCNC(=O)N1CCCC1c1ccco1 (stereo not drawn),0.42,0.11
Cc1c(C(=O)NCC2CCCO2)oc2ccc(S(=O)(=O)N3CCCCCC3)cc12 (stereo not drawn),·,-0.74

# Remaining list, next part.
SMILES,HIV TAR-Tat,CDC25B-CDK2 inh
O=C(Cn1cc(S(=O)(=O)Cc2cccc(Cl)c2)c2ccccc21)N1CCCC1,0.28,·
COc1cc(N2C(=O)CSC23C(=O)Nc2ccccc23)cc(OC)c1OC (stereo not drawn),·,-1.33
CS(=O)(=O)c1ccc(C(=O)Nc2nc(-c3ccncc3)cs2)cc1,0.54,·
CCc1cc2c3c([nH]c2cc1S(=O)(=O)N(C)c1ccc(C)cc1)CCCC3=O,0.56,·
Clc1cccc(CNc2ccc3nncn3n2)c1,0.63,-0.38
O=C(NCc1ccccn1)C1CCN(c2nnc(N3CCCC3=O)s2)CC1,-1.46,-2.09
O=c1cc(Nc2ccccc2)cc[nH]1,0.59,-0.35
O=C(Nc1noc2ccccc12)c1ccccc1Cl,-1.66,-0.67
CC(C)(C)c1nnc2sc(SCC(=O)Nc3nccs3)nn2c1=O,-0.79,·
O=C1CCC(=O)N1c1nccs1,-0.53,-1.57
CCCCN(C)C(=O)CCc1nc2sc3c(c2c(=O)[nH]1)CCC(C)C3 (stereo not drawn),0.59,·
O=C(NCc1ccc(Cl)cc1)NC1COc2ccccc2C1 (stereo not drawn),0.73,·
C=CCn1c(NCc2cc(Cl)ccc2O)nc2ccccc21,2.52,-0.49
CCOC(=O)CSC1=C(C#N)C(c2cc(OC)ccc2OC)CC(=O)N1 (stereo not drawn),-1.75,-1.31
O=C(Nc1nccs1)c1cc2ccccc2c(=O)o1,-0.2,0.17
COC(=O)c1cc(NC(=O)c2cc(Cl)ccc2[N+](=O)[O-])cc(C(=O)OC)c1,·,-0.76
COC(=O)C1C(=O)C2=C(CC1C)NC(C)=C(C(=O)OC1CCCC1)C2c1cccs1 (stereo not drawn),-0.01,0.36
COc1ccc2c(c1)c(=O)oc1c(C)c3occ(-c4ccccc4)c3cc12,0.58,-0.06
COc1ccc(S(=O)(=O)NCc2nc(-c3ccc(Cl)cc3)no2)cc1,-0.12,-1.8
Cc1cccc(Nc2nc3ccccc3c3nncn23)c1C,0.45,-2.47
COc1ccc(C2N=C(N)Nc3nc(=O)c4ccccc4n32)cc1 (stereo not drawn),0.76,-0.98
Cc1ccc(C)c(NC(=O)N2CCN(c3nc(C)cc(N4CCCC4)n3)CC2)c1,1.24,·
CCOCCOC(=O)C(C)Sc1n[nH]c(=O)[nH]c1=O (stereo not drawn),-0.04,-2.94
COc1ccc2[nH]c(C(=O)O)cc2c1,0.01,-3.78
COC(=O)c1c(N)n(C(C)c2ccccc2)c2nc3ccccc3nc12 (stereo not drawn),·,-0.86
CCOC(=O)c1c(C)oc2ncnc(NC(C)C(=O)OCC)c12 (stereo not drawn),-1.37,·
CCOC(=O)c1cnc(NCc2ccc3c(c2)OCO3)nc1C,0.52,-0.22
O=C(NC(=S)Nc1ccccc1)c1cncc(C#Cc2ccccc2)c1,·,-1.13
Cn1ccc2cc(S(=O)(=O)N3CCN(C(=O)Nc4ccc(F)cc4)CC3)ccc21,0.41,·
Cc1ccc(/C(O)=C2\C(=O)C(=O)N(CCCn3ccnc3)C2c2ccccc2)cc1 (stereo not drawn),-1.02,-1.22
CC(C)(C)NC(=O)CCc1nc(-c2cccs2)no1,-0.58,-0.57
Cc1nc2ccc(NC(=O)c3ccc(S(=O)(=O)N4CCOCC4)cc3)cc2s1,·,-2.33
CCOc1ccc2[nH]cc(S(=O)(=O)c3ccc(CC)cc3)c(=O)c2c1,-1.41,-0.77
Cc1ccc(Cl)cc1N1CCN(C(=O)c2ccc3nc4ccsc4c(=O)n3c2)CC1,·,-0.04
O=C(Nc1ccc(Cl)cc1)c1cnccc1C(F)(F)F,·,-1.27
Cc1ccc(S(=O)(=O)NC(=O)N2c3ccccc3CCc3ccccc32)cc1,·,-1.36
O=C(O/N=C1\Cc2ccccc2C1=O)c1cccs1,·,-0.52

# High-throughput results deposited in PubChem BioAssay by Center for Chemical Genomics, University of Michigan.
